# Screening data (PubChem)
# Mtb H37Rv: Mycobacterium tuberculosis H37Rv growth inhibition, cell based, confirmatory dose response (AID 1949); M. tuberculosis H37Rv growth inhibition; most inactive calls were filed without a number and no value below 0 was filed; inhibition, % at 10 µg/mL, or IC50 in µg/mL where a hit was titrated; hit rate 1.6% among 100,000;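 active = confirmed in a dose series; inconclusive = about 50% or more but not retested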;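 note: bacteria grown 7 days with compound before Alamar blue readout; 0% = untreated bacteria and 100% = reference antibiotic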
# Starred values were filed as active, the others as inactive; i = inactive; ? = inconclusive.
Structure	Mtb H37Rv
CCc1ccc(C2CC(c3cccc(OC)c3)n3nc(N)nc3N2)cc1 (stereo not drawn)	i
COc1ccc(-n2cnc3cc([N+](=O)[O-])ccc32)cc1	i
O=C(Cn1nnc(-c2ccc(C(F)(F)F)cc2)n1)N1CCOCC1	i
O=C(CCNc1n[nH]c(=O)[nH]c1=O)N/N=C\c1c(F)cccc1Cl	i
COc1ccc(-c2cc3ccccc3oc2=O)cc1N	i
CC(=O)COc1cc(C)c2c(c1)oc(=O)c1ccccc12	i
Fc1cccc(-c2nn3c(Cc4ccccc4)nnc3s2)c1	1%
COC(=O)N1c2ccc(F)cc2CCC1C (stereo not drawn)	i
Fc1ccc(CNC(=S)Nc2cccc3ccccc23)cc1	i
CCc1ccccc1NC(=O)CSc1ncnc2scc(-c3ccccc3)c12	i
COc1ccc(NC(=O)c2c(NC(=O)Cc3ccc(OC)c(OC)c3)sc3c2CCC3)cc1	i
COc1ccc(N(CC(=O)N2CCN(c3cc(Cl)ccc3C)CC2)S(C)(=O)=O)cc1Cl	11%
CNC(=O)CN(C#N)c1nc(C)cc(C)n1	i
COc1ccc(N2CCN(C(=O)CN3C(=O)c4cccc5cccc3c45)CC2)cc1	i
CCc1ccc(C(=O)CSc2cc(C)c3ccccc3n2)cc1	8%
CCCCC(=O)Nc1ccc(C)cc1Br	i
CC(=O)N1CCN(c2nc(N3CCCC3)nc(N3CCCC3)n2)CC1	i
CCOC(=O)N1CCN(C(=O)c2ccccc2CCc2ccccc2)CC1	i
O=C(O)CNC(=O)c1cccc2ccccc12	i
COc1cc(C)c(S(=O)(=O)N2CCN=C2c2ccccc2)cc1C	i
Cc1ccc(N2CCN(C(=O)N(C)C)CC2)cc1Cl	i
Cc1ccc(C(=O)Nc2ccccc2N2CCN(C)CC2)cc1Cl	2%
CCC(=O)Oc1cccc(C(=O)Nc2ccc(Br)cc2C)c1	i
Cn1c(=O)c2[nH]c(-c3cccc4ccccc34)c(O)c2n(C)c1=O	i
COC(=O)c1sc(NC(=S)N2CCN(C3CCCCC3)CC2)c(C(=O)OC)c1C	i
CCC(C)c1ccccc1OCCOCCN1CCOCC1 (stereo not drawn)	i
O=c1c2cc(-c3ccccc3)sc2ncn1CCOc1ccccc1	i
S=C(c1c[nH]c2ccc(Br)cc12)N1CCc2ccccc2C1	i
COc1ccc(CNC(=O)CSc2nnc(C)s2)cc1	i
Clc1ccc(Cn2ncc3c(N4CCOCC4)ncnc32)cc1	i
COc1ccc(N2CCN(C(=O)c3c(F)cccc3F)CC2)cc1	i
CCNC(=O)c1ccc(Cl)cc1[N+](=O)[O-]	i
COC(=O)C(NC(=O)NC1CCCCC1)C(C)C (stereo not drawn)	i
Cc1cccc(NC(=O)CN(C)S(=O)(=O)c2cc(Cl)ccc2Cl)c1C	i
N=C(c1ccc([N+](=O)[O-])cc1)N1CCCCC1	i
CC(C(=O)NC1CCCCC1)N1C(=O)C2C3C=CC(C3)C2C1=O (stereo not drawn)	1%
COc1ccc(NC(=O)N(Cc2ccc(F)cc2)C2CC(=O)N(c3ccccc3)C2=O)cc1 (stereo not drawn)	2%
N/C(Cc1ccc([N+](=O)[O-])cc1)=N\OC(=O)COc1ccc(Cl)cc1Br	i
COc1ccc(C(=O)Nc2sc3c(c2C(=O)Nc2cccc(OC)c2)CCC3)cc1	i
COc1cc(NS(=O)(=O)c2ccccc2)ccc1Cl	i
CSc1ccccc1NC(=O)c1ccc(COc2ccc(Cl)cc2)o1	23%
Fc1cccc(NC(=S)Nc2cccnc2)c1	i
O=C(Nc1ccc(Cl)cc1C(F)(F)F)c1ccco1	i
O=C1c2cccc3cccc(c23)C(=O)N1OS(=O)(=O)c1ccc(Br)cc1	2%
O=C(CSc1nc(-c2ccco2)cc(C(F)(F)F)n1)N1CCCCCC1	i
Cc1ccc(C)n1-c1ccc(S(N)(=O)=O)cc1	i
CCCCNC(=O)c1ccccc1N(Cc1ccccc1)S(C)(=O)=O	i
NC1=NC2(CCCCC2)n2c(nc3ccccc32)N1	2%
COc1cc(C#N)cc(I)c1OCC#N	36%
CCOc1ccc(N2CC(C(=O)Nc3ccc(Br)cc3)CC2=O)cc1 (stereo not drawn)	i

# Carrying on.
Structure	Mtb H37Rv
CNc1cc2c(cc1[N+](=O)[O-])n(C)c(=O)n2C	i
CC(C)(C)c1ccc(C(=O)Nc2cccc(NC(=S)NC(=O)c3ccco3)c2)cc1	18%
O=C(c1cc([N+](=O)[O-])ccc1N1CCCCCC1)N1CCOCC1	i
CCOC(=O)N1CCN(CCC(=O)Nc2cc([N+](=O)[O-])ccc2OC)CC1	i
CSc1nnc(-c2cc3ccccc3cc2O)n1C	i
CC(C)C(NS(=O)(=O)c1cc(Cl)ccc1Cl)C(C)C	i
Cc1cccc(C(=O)Nc2ccc(-c3nc4ccccc4s3)c(Cl)c2)c1	i
O=C(CCN1C(=O)c2ccccc2C1=O)OCc1cccc(Oc2ccccc2)c1	i
COc1cc(C(=O)Nc2nnc(Cc3ccc(Cl)cc3)s2)c([N+](=O)[O-])cc1OC	i
O=C(CCn1nc(-c2ccc(Cl)cc2)c2ccccc2c1=O)Nc1ccccc1	1%
CCOc1cc(C=O)ccc1OCC(=O)Nc1ccc(OC(F)(F)F)cc1	0%
CN(C)S(=O)(=O)N1CCC(C(=O)O)(c2ccccc2)CC1	0%
COCCCNC(=O)c1cccc(C)c1[N+](=O)[O-]	i
COc1ccc(OC)c(C(C)NC(=S)Nc2ccc(S(N)(=O)=O)cc2)c1 (stereo not drawn)	i
O=C(CCC1CCCC1)N1CCN(Cc2ccccc2)CC1	i
CCCCc1cc(=O)oc2c(C)c(OCC(=O)c3cccc([N+](=O)[O-])c3)ccc12	i
O=C(CSc1nnnn1-c1ccccc1)Nc1nnc(COc2ccccc2)s1	i
CCOC(=O)Nc1ccc(C(C)C)cc1	i
COc1ccc(C2c3cc(OC)c(OC)cc3CCN2C(=O)C(C)(C)C)cc1OC (stereo not drawn)	i
N/C(=N\OC(=O)CCc1ccccc1)c1ccc([N+](=O)[O-])cc1	3%
O=C(CCC(=O)NCc1ccc(Cl)c(Cl)c1)NCc1ccc(Cl)c(Cl)c1	i
COc1ccc(C2Nc3ccc(C(=O)c4ccccc4)cc3NC3=C2C(=O)CC(C)(C)C3)cc1OC (stereo not drawn)	i
Cn1nc(-c2ccc(C(=O)N3CCCCC3)cc2)c2ccccc2c1=O	i
CC(NC(=O)CSc1nc2ccccc2c(=O)[nH]1)c1ccccc1 (stereo not drawn)	?
N#CCc1ccc(NS(=O)(=O)c2ccc3c(c2)OCCO3)cc1	i
O=c1c2c(nc3[nH][nH]c(=S)n13)-c1ccccc1CC21CCCC1	i
COc1ccc(NC(=O)CN(C)S(=O)(=O)c2ccc(Cl)cc2)cc1OC	8%
O=C(NCc1ccc(Cl)cc1Cl)C1COc2ccccc2O1 (stereo not drawn)	33%
CC1CN(c2nc(-c3ccc(Cl)cc3)cs2)CC(C)O1 (stereo not drawn)	5%
CS(=O)(=O)N1CCc2cc(S(=O)(=O)Nc3ccc4oc5c(c4c3)CCCC5)ccc21	2%
S=C(NCc1cccnc1)Nc1ccc(Cl)cc1Cl	i
CCn1c(SCC(=O)Nc2ccc(F)cc2)nnc1-c1ccncc1	i
COc1ccc(Cl)cc1Nc1n[nH]c(C)c1[N+](=O)[O-]	1%
CCOc1cc(CO)cc(Cl)c1OCc1ccc(F)cc1	1%
COc1ccc(-c2nc3cc(NC(=O)c4ccccc4Br)ccc3o2)cc1	i
CCN1C(=O)NC(c2cc(I)c(O)c(OC)c2)C(C(=O)OC)=C1C (stereo not drawn)	i
O=C(Cn1cncc1-c1ccc([N+](=O)[O-])cc1)Nc1ccccc1F	i
COc1cccc(C(=O)Nc2ccc(C(=O)NCC(C)C)cc2)c1	i
Cc1ccc(NC(=O)CC2SC(N)=NC2=O)cc1 (stereo not drawn)	i
Cc1ccc(C)c(OCC(=O)NC2CCCCC2)c1C	4%
Cc1c(NC(=S)NC(=O)Cc2ccccc2)cccc1C(=O)O	i
CCN(CC)C(=O)c1sc(NC(=S)NC2CCN(Cc3ccccc3)CC2)c(C(=O)OC)c1C	i
C=CCn1c(SCC(=O)Nc2nc(C)c(C(=O)OCC)s2)nc2sc(C)c(C)c2c1=O	i
Cc1cc(NC(=O)CCc2ccccc2)ccc1NC(=O)c1cc2ccccc2o1	i
COc1cccc(OCCOc2cccc3ccc(C)nc23)c1	4%
COc1ccc(CCC(=O)Nc2ccccc2F)cc1	2%
COc1ccc(CC(=O)NCc2n[nH]c(=S)n2C)cc1	i
Cc1ccc(Cl)cc1N1CCN(S(=O)(=O)c2ccc(F)cc2)CC1	4%
CC(C)C(=O)Nc1cccc(NC(=S)NC(=O)c2cccc3ccccc23)c1	i
COc1ccc(S(=O)(=O)N(CC(=O)Nc2cccc(SC)c2)Cc2ccccc2)cc1	i

# Arranged by molar mass (falling): part of the list above.
Structure	Mtb H37Rv
O=C(CSc1nc(-c2ccco2)cc(C(F)(F)F)n1)N1CCCCCC1	i
COc1ccc(CNC(=O)CSc2nnc(C)s2)cc1	i
Cc1ccc(C)c(OCC(=O)NC2CCCCC2)c1C	4%

# Among those listed so far, these have a tert-butyl group.
Structure	Mtb H37Rv
CC(C)(C)c1ccc(C(=O)Nc2cccc(NC(=S)NC(=O)c3ccco3)c2)cc1	18%
COc1ccc(C2c3cc(OC)c(OC)cc3CCN2C(=O)C(C)(C)C)cc1OC (stereo not drawn)	i

# Quoted at random: five records from the list, in no set order.
Structure	Mtb H37Rv
CCN1C(=O)NC(c2cc(I)c(O)c(OC)c2)C(C(=O)OC)=C1C (stereo not drawn)	i
Cc1ccc(Cl)cc1N1CCN(S(=O)(=O)c2ccc(F)cc2)CC1	4%
COc1ccc(CC(=O)NCc2n[nH]c(=S)n2C)cc1	i
CS(=O)(=O)N1CCc2cc(S(=O)(=O)Nc3ccc4oc5c(c4c3)CCCC5)ccc21	2%
Cc1cc(NC(=O)CCc2ccccc2)ccc1NC(=O)c1cc2ccccc2o1	i

# Additional compounds
Structure	Mtb H37Rv
COc1ccc(C(=O)CSc2nnc(-c3cccc(Br)c3)o2)cc1	1%
COC(=O)COc1ccc(S(=O)(=O)N2CCCC2)cc1C	i
COc1cc(C)c(S(=O)(=O)N2CCCCC2)cc1C	2%
Cc1cc(C)cc(NC(=O)c2ccccc2OCC(=O)N2CCc3ccccc32)c1	3%
C=CCC(CC=C)(C(=O)NC(C)CC)c1ccccc1 (stereo not drawn)	i
Cc1nc(C)c(-c2csc(Nc3ccccc3F)n2)s1	36%
COc1ccccc1Nc1nnc(C)c(=O)n1N	i
Cc1onc(-c2c(F)cccc2Cl)c1C(=O)NCCc1ccccc1	i
O=c1c2c(-c3ccccc3)csc2ncn1CCn1cnc2scc(-c3ccccc3)c2c1=O	i
CC(O)c1nc2ccccc2n1CC(=O)N(c1ccccc1)C(C)C (stereo not drawn)	i
Clc1ccccc1CSc1ncn[nH]1	i
CN1CCN(c2ccc([N+](=O)[O-])cc2S(=O)(=O)N2CCN(C)CC2)CC1	i
Cc1cccc(/C(N)=N/OC(=O)Cc2cccc3ccccc23)c1	i
Nc1nc2cc(Cl)ccc2n1CCCO	i
CCn1ncc(Cl)c1C(=O)NCc1ccco1	3%
COc1ccc(CN2CCC(N(CCc3ccccc3)Cc3ccccc3)CC2)c(OC)c1	2.6µg/mL*
COc1ccc(S(=O)(=O)N(CC(=O)NC2CCCCC2)c2ccccc2)cc1OC	i
CCC(c1ccccc1)c1nc(-c2cccc([N+](=O)[O-])c2)no1 (stereo not drawn)	i
CCn1c(COc2cccc(C)c2C)nnc1SCC(=O)Nc1cc(C)cc(C)c1	i
CC(C(=O)Nc1cccc(F)c1)c1ccc([N+](=O)[O-])cc1 (stereo not drawn)	0%
Cc1cc(C(C)(C)C)cc(S(=O)(=O)N(C)C)c1C	i
CC(=O)Nc1ccc(S(=O)(=O)Nc2ccc(F)c(F)c2)cc1	i
CS(=O)(=O)N1N=C(c2ccccc2)CC1c1ccccc1 (stereo not drawn)	i
CC12CCC(C(=O)Nc3ccncc3)(c3nc4ccccc4nc31)C2(C)C (stereo not drawn)	?
Cc1ccc(S(=O)(=O)N2CCCC(C(=O)N3CCCC(C)C3)C2)cc1 (stereo not drawn)	i
O=C(CNS(=O)(=O)c1ccccc1)Nc1cccc(Cl)c1Cl	i
COc1cccc(C(=O)Nc2nnc(C3CCCCC3)s2)c1OC	i
Cc1nnc(SCC(=O)Nc2ccc(Cl)cc2Cl)n1-c1ccc(F)cc1	i
COC(=O)C(CC(C)C)NC(=O)c1ccccc1Br (stereo not drawn)	i
Cc1ccc(C(=O)Nc2ccccc2C(=O)Nc2ccc(F)cc2)cc1	i
COc1ccc(CNC(=S)Nc2ccc(OC)cc2OC)cc1	i
O=c1cc(/C=C/c2ccc3c(c2)OCO3)[nH]c2ccccc12	i
CCNS(=O)(=O)c1ccc(NC(=S)NC2CCCCC2)cc1	i
Cn1c(=O)c2[nH]c(Nc3ccccc3)nc2n(C)c1=O	i
CN=C(NS(=O)(=O)c1ccc(C)cc1)c1ccc(Cl)cc1	2%
Cc1cc2nn(-c3ccc(Cl)cc3)nc2cc1NC(=O)CCc1ccccc1	i
COC(=O)c1c(-c2cccc(C)c2)csc1NC(=O)c1cnccn1	i
O=C(Nc1ccccc1OC(F)F)c1cccs1	1%
Cn1nnc2cc(C(=O)NCc3ccco3)ccc21	1%
Cn1c(-c2cc3ccc(O)cc3oc2=O)nc2ccccc21	i
COc1ccccc1CNCc1cccnc1	1%
COC(=O)c1c(C)oc2ccc(OCc3cc(C)ccc3C)cc12	i

# An excerpt; count on the stated rates, not on these rows.
